Assay outcomes deposited in PubChem by several laboratories.
ALR inh: inhibitors of human ALR sulfhydryl oxidase, primary screen, biochemical, H2O2 detection, HRP-luminol luminescence, single point. 290,000 compounds, 3.8% hits. purified ALR, DTT oxidation. inhibition, % (concentration not given with the values). FAD-linked sulfhydryl oxidase ALR (Homo sapiens), P55789. AID 485317, 2010;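 active means mean and each replicate at 75% or more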;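 further: stock transfer was 7.5 nL into about 7.5 µL; 0% = neutral wells and 100% = wells with inactivated enzyme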
Target sequence (P55789 whole entry, looked up): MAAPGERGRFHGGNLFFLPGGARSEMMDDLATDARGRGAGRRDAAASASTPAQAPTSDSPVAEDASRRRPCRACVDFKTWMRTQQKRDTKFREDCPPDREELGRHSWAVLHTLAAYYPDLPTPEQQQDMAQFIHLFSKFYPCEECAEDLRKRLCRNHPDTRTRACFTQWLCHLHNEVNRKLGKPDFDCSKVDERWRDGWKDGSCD
LANA-H2B inh: blockers of LANA interaction with H2A/H2B – biochemical, FP readout, HTS, primary screen; Protein LANA1 (Human herpesvirus 8 type P (isolate GK18)), Q9QR71; 320,000 compounds, 0.6% hits; inhibition, % (concentration not given with the values); cell-free LANA-H2A/H2B peptide, fluorescence polarization; AID 2629, 2010; in the data active means inhibition mostly above about 10%, no sharp cut-off; inactive means mostly below about 6.7%;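 further: stock transfer was 7.5 nL into about 10 µL; 0% = median of vehicle wells and 100% = median of positive control wells; one replicate is shown; the record names a cut of 25% in any replicate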
B2AR ag: beta2AR agonists driving receptor internalization, primary screen, cell-based, FAP fluorogen, flow cytometry; 340,000 compounds, 0.43% hits; Am2.2-beta2AR cells; reference of the scale not given here; response, % (concentration not given with the values);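 active means response above a set limit, near 3 SD of response in nonfluorescent compounds, cut at about 42% in these data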;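 further: stock transfer was 100 nL into about 11 µL; a reference agonist was the positive control; negative values mostly stem from fluorescent compounds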
Target sequence (P07550 whole entry, looked up): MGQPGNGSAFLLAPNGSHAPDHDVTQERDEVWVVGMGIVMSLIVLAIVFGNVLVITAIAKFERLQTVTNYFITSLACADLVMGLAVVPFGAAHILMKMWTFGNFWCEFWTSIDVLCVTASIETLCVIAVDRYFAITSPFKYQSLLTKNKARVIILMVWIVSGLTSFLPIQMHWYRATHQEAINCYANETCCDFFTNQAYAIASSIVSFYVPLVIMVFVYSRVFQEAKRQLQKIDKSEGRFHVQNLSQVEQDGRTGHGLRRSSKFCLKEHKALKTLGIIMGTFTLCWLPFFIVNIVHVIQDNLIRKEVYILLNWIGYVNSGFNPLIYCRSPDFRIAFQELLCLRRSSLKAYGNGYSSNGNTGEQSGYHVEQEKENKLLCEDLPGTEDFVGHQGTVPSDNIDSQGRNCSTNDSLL
Calb FLC: C. albicans growth inhibition with fluconazole, primary screen, CaCi-2 strain, Alamar Blue fluorescence | C. albicans CaCi-2 (fluconazole-resistant clinical isolate) + fluconazole, 48 h | growth inhibition, % (test concentration not listed) | 300,000 compounds, 0.57% hits;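 active means most replicates above 75%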;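 further: all wells also contain fluconazole at 8 µg/ml as a sub-toxic cotreatment; 0% = median of DMSO wells and 100% = median of geldanamycin control wells; wells of about 8 µL received 7.5 nL stock; the first replicate is given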
A1 inh: caspase 3/7 activation in MEF A1-2A-BIM cells, primary screen, A1 inhibitor project, cell-based, luminescence, HTS. caspase activation, % (concentration not given with the values). Caspase-Glo 3/7 luminescence, 3 h; percent of clofoctol response, vehicle zero. 330,000 compounds, 0.066% hits;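 active means over half of replicate activation scores above 10%, or exactly half above 10 with the replicate mean above 10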;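 further: wells of about 30 µL received 50 nL stock; many hits fall short of the cut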
T cruzi inh: inhibitors of intracellular T. cruzi growth, primary screen, luminescence, NIH3T3 host cells | AID 1885, 2009 | inhibition, % (no concentration beside the values) | 300,000 compounds, 1.4% hits | T. cruzi beta-gal in NIH3T3, 90 h;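 active means mean inhibition across valid replicates above about 55%, limit read from the data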;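 further: signal also drops with host cell toxicity which is not excluded here; 0% = plate median of DMSO wells and 100% = zero luminescence signal; higher percent means less beta-gal luminescence so fewer parasites; stock transfer was 50 nL into about 50 µL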
Ecoli rRNA inh: reduced GFP signal of wild-type E. coli, primary screen, bacterial rRNA inhibitor project, GFP/RFP fluorescence, OD600, single point. E. coli WT GFP vs humanized-ribosome RFP mutants, 24 h; hits give low values; DMSO median 0, no signal -100. GFP signal change (wild-type ribosome), % (no concentration beside the values). 350,000 compounds, 1.6% hits;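 active means significant combined selectivity score with lowered wild-type GFP, culture density cut under 30%, mutant RFP and density less affected; inactive means any of these conditions unmet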; further: one replicate is shown; some compounds called inactive have numbers as strong as hits
Beta cell apopt: inhibitors of cytokine-induced beta cell apoptosis, primary screen, luminescence; INS-1E cytokine-induced death, ATP luminescence, 48 h; percent of positive-control rescue, neutral wells zero; protection from apoptosis, % (no concentration beside the values); 300,000 compounds, 0.8% hits; AID 435005, 2010;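 active means all replicates at 75% or more, or half of them and the mean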;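 further: 0% = cytokine-treated negative control wells and 100% = positive control rescue; higher means more ATP so stronger rescue from cytokine killing; wells of about 40 µL received 100 nL stock; the first replicate is given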
Ecoli rRNA inh OD600: further read-out of Ecoli rRNA inh, marked with its call; OD600 change, %; measured here: OD600 growth;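 optical density of the mix in the first replicate; 0 = DMSO median and -100 = no signal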
Ecoli rRNA inh RFP: also measured in Ecoli rRNA inh; calls as there; RFP signal change, %; measured here: RFP humanized mutant strains;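 first replicate; 0 = DMSO median and -100 = no signal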
An asterisk follows results filed as active; x = not tested or not shown; & = joins results of further samples. An excerpt (hit frequency here may not be typical).

SMILES | ALR inh | LANA-H2B inh | B2AR ag | Calb FLC | A1 inh | T cruzi inh | Ecoli rRNA inh | Ecoli rRNA inh OD600 | Ecoli rRNA inh RFP | Beta cell apopt
C#Cc1cccc(-n2nnc(C(=O)OC)c2-c2ccccc2)c1 | -50 | -2.8 | 19 | -1 | -0.3 | -10 | -10 | -6 | 2.0 | 8
COc1ccc(C(=O)NCC(=O)N2CCc3ccccc3C2)cc1 | -3 | 7.7 | -5 | -20 | 0.4 | -8 | 4 | 5 | -1.4 | -5
C/C(=N\N1CCN(C2c3ccccc3-c3ccccc32)CC1)c1ccncc1 | 0 | -6.1 | 0 | 12 | 0.6 | -20 | x | x | x | -4
Cn1cc(/C=C2\SC(=O)N(c3ccccc3)C2=O)c2ccccc21 | -1 | -4.2 | -10 | 0 | 2.0 | 11 | x | x | x | -13
Cc1cc(C)nc(NS(=O)(=O)c2ccc(NC(=O)c3cc(-c4ccccc4)nc4ccccc34)cc2)n1 | 0 | -6.7 | 9 | 0 | 0.0 | 18 | 2 | -6 | 8.7 | -3
COc1cccc(-c2nc(NCc3ccccc3)c3ccccc3n2)c1O | x | 5.1 | 5 | 0 | -0.3 | 37 | -1 | 10 | -5.3 | 6
CCOC(=O)c1c(NC(=O)CN2CCN(C(=O)c3ccco3)CC2)sc(C)c1C | -3 | -3.0 | -3 | 4 | -0.3 | 16 | -4 | -7 | -0.8 | 3
CCn1c(=O)cc(O)c2ccccc21 | 14 | -2.1 | -2 | 5 | 1.0 | 4 | x | x | x | -7
CCOc1ccc(S(=O)(=O)N2CCC(C(=O)NCc3ccco3)CC2)cc1 | -9 | 2.8 | 5 | -9 | 0.3 | -8 | 3 | 10 | -1.3 | -4
CCOc1ccc(C(=O)Nc2cccc(-c3ccc(N4CCOCC4)nn3)c2)cc1OCC | x | -1.4 | 21 | 7 | 0.6 | -8 | 0 | 10 | 0.5 | 20
CCOc1cccc(C2NC(=S)NC(C)=C2C(=O)Nc2ccccc2)c1 (configuration not stated) | -2 | 0.2 | -5 | -11 | 0.9 | 8 | x | x | x | -5
COc1cc(/C=C\C(=O)NCc2ccc3[nH]c(C)cc3c2)cc(OC)c1OC | 0 | -5.5 | -2 | 2 | x | 7 | 2 | 9 | 5.7 | 0
Cc1ccc(S(=O)(=O)NN=C2C3CC4CC(C3)CC2C4)cc1 | 12 | 5.2 | -2 | -2 | -0.3 | -13 | 16 | 10 | 0.9 | x
O=C(CSc1nnc(-c2ccccc2)c(-c2ccccc2)n1)NCC1CCCO1 (configuration not stated) | 4 | 1.1 | -6 | x | -0.8 | x | -6 | -8 | 1.3 | -6
CCCCCCc1c(O)nc(SCCN(C)C)[nH]c1=O | x | 4.8 | -1 | -4 | 0.1 | 1 | 7 | 0 | -2.2 | -6
S=C(NCC1COc2ccccc2O1)Nc1ccccc1 (configuration not stated) | x | -0.7 | -2 | 9 | 0.5 | -10 | -26 | -39 | 6.9 | -2
COc1cc(/C=N/NC(=O)c2ccc(CSc3nc4ccccc4[nH]3)cc2)cc(OC)c1OC | -11 | -1.2 | 6 | -24 | 0.1 | 3 | x | x | x | 0
CCc1ccc2oc(C(=O)N3CCN(c4ccccc4OC)CC3)cc(=O)c2c1 | 6 | -3.2 | -3 | 7 | -0.6 | 1 | -17 | -19 | -4.5 | 2
Cc1ccc(S(=O)(=O)N2CC(C(=O)O)=CC[C@H]2c2ccc(Cl)cc2)cc1 | 3 | 7.7 | -6 | x | 0.2 | x | -40 | -38 | -15 | 6
CC(Oc1cccc(Cl)c1)C(=O)Nc1cc(=O)n(C)c(=O)n1C (configuration not stated) | -4 | -4.6 | 5 | -8 | 0.2 | -7 | x | x | x | 2
Nc1nnc(-c2ccc(Cl)c([N+](=O)[O-])c2)s1 | 5 | 2.5 | -1 | 34 | 1.3 | -21 | 4 | -7 | -7.7 | -4
CCOc1ccc(C(=S)NC2CCCCC2)cc1 | 1 | -7.1 | -3 | -15 | 0.8 | 2 | x | x | x | 5
Cc1cc2nc3ccc(N(C)C)cc3nc2cc1N | 92* | 0.2 | -5 | 2 | -7.6 | -4 | x | x | x | 2
CC(C)N(Cc1ccccc1)C(=O)CN1C(=O)NC2(CCCCCC2)C1=O | 2 | 2.3 | -1 | x | 0.4 | x | 3 | 0 | -0.6 | 0
CCN1CCN(C(=O)c2ccc3c(c2)N(Cc2ccccc2)C(=O)c2ccccc2S3=O)CC1 (configuration not stated) | 72 | 1.8 | 3 | 0 | -0.4 | 15 | 6 | -5 | -0.9 | -1
CC(NCC(O)COCc1ccc(Cl)cc1)c1ccccc1 (configuration not stated) | 15 | -2.3 | -1 | -37 | 0.4 | 21 | 5 | -3 | -1.6 | 6
O=C1NCC(O)=C1C=NCCCO | -2 | 3.3 | 0 | 10 | -0.1 | -2 | x | x | x | 0
Cc1cc(NC(=O)CCC(=O)N(Cc2ccco2)C2(C(=O)NC3CCCCC3)CCCC(C)C2)no1 (configuration not stated) | x | -0.5 | 15 | 17 | 0.3 | 7 | -4 | -3 | 1.2 | 5
CCCCCn1c(=O)[nH]c2cc(C(=O)NCCCN(CC)CC)ccc2c1=O | x | -0.7 | 12 | 20 | -0.5 | -1 | x | x | x | 2
Cc1[nH]c2ccc(C(=O)N3CCN(Cc4ccccc4)CC3)cc2c1C | -1 | -1.4 | 5 | -24 | 0.0 | 2 | 2 | -4 | 6.4 | -11

Three compounds from above, sorted by the value under ALR inh, low to high.
molecule	ALR inh
CC(Oc1cccc(Cl)c1)C(=O)Nc1cc(=O)n(C)c(=O)n1C (configuration not stated)	-4
Cc1ccc(S(=O)(=O)N2CC(C(=O)O)=CC[C@H]2c2ccc(Cl)cc2)cc1	3
O=C(CSc1nnc(-c2ccccc2)c(-c2ccccc2)n1)NCC1CCCO1 (configuration not stated)	4

Following part.
SMILES | ALR inh | LANA-H2B inh | B2AR ag | Calb FLC | A1 inh | T cruzi inh | Ecoli rRNA inh | Ecoli rRNA inh OD600 | Ecoli rRNA inh RFP | Beta cell apopt
C[C@H]1CN([C@@H](C)CO)C(=O)Cc2cc(NC(=O)CCC(F)(F)F)ccc2O[C@H]1CN(C)C(=O)Nc1ccc(F)cc1 | 0 | 0.7 | -5 | x | 0.2 | x | 3&23 | 16&12 | 1.1&1.6 | -1
Nc1ccn(-c2ccc(Cl)cc2)c(=O)c1 | 0 | -3.2 | -2 | 12 | 0.3 | 1 | x | x | x | -1
O=C(COC(=O)CCN1C(=O)c2ccccc2C1=O)Nc1ccc(S(=O)(=O)N2CCCC2)cc1 | x | 2.7 | -10 | 6 | -0.3 | -5 | x | x | x | 1
O=C(Nc1ccc(F)cc1)c1ccccc1S(=O)(=O)c1ccccc1[N+](=O)[O-] | -26 | 0.3 | 7 | -13 | -0.7 | -11 | -1 | 29 | 6.1 | -2
COc1ccc(/C=N/NC(=O)c2ccn[nH]2)cc1CSc1ccccn1 | 99* | 1.4 | -30 | -9 | -2.2 | 7 | -11 | -16 | 0.3 | -1
O=C(CSc1nnc2ccccn12)Nc1cccc(S(=O)(=O)N2CCOCC2)c1 | -9 | 6.2 | -4 | 2 | 0.2 | -6 | x | x | x | -7
CCOC(=O)CSc1nc2ccsc2c(=O)[nH]1 | -1 | 2.0 | 9 | -1 | 0.6 | -11 | 11 | 5 | -3.2 | 1
Cc1ccc(N(C)C(=O)CCNC(=O)Cn2cnc3ccccc3c2=O)cc1C | -3 | -1.4 | -4 | 4 | 0.1 | 8 | 6 | 3 | 1.3 | -2
COc1cc2c(c(OC)c1OC)-c1c(cc(OC)c(OC)c1OC)C[C@](C)(O)[C@@H](C)C2 | -12 | 7.9 | -2 | -6 | -1.3 | -25 | 9 | 9 | -9.7 | 3
COCCCNC(=S)N/N=C/c1ccc(N(C)C)cc1Cl | 17 | -7.3 | 2 | 4 | 0.2 | 4 | -18 | -6 | -1.0 | -8
CN1C(=O)/C(=C/c2cn(CC(=O)N3CCCCC3)c3ccccc23)NC1=S | 0 | 1.0 | -6 | 112* | 0.1 | x | 17 | 18 | 6.2 | 2
CCOc1ccccc1C(=O)Nc1ccc(S(=O)(=O)N2CCOCC2)cc1 | -5 | 1.8 | -8 | -3 | 0.6 | 28 | x | x | x | 6
COc1ccc(NC2=CC(=S)NC(C)(C)C2)cc1 | 26 | -2.4 | -16 | -22 | 0.2 | 25 | 5 | -2 | 17 | x
Cc1ccc(S(=O)(=O)N2CCN(Cc3cc(=O)n4ccccc4n3)CC2)c(C)c1 | 3 | -3.0 | -6 | x | -0.7 | x | x | x | x | 0
COc1cc2[nH]c(=S)n(Cc3cccs3)c(=O)c2cc1OC | x | -1.9 | -3 | 18 | 1.5 | -1 | 10 | 7 | 0.1 | 11

A different layout for some results above.
Order of results: ALR inh	LANA-H2B inh	B2AR ag	Calb FLC	A1 inh	T cruzi inh	Ecoli rRNA inh	Ecoli rRNA inh OD600	Ecoli rRNA inh RFP	Beta cell apopt
- COc1ccc(/C=N/NC(=O)c2ccn[nH]2)cc1CSc1ccccn1
→ 99*	1.4	-30	-9	-2.2	7	-11	-16	0.3	-1
- O=C(CSc1nnc2ccccn12)Nc1cccc(S(=O)(=O)N2CCOCC2)c1
→ -9	6.2	-4	2	0.2	-6	x	x	x	-7
- CCOC(=O)CSc1nc2ccsc2c(=O)[nH]1
→ -1	2.0	9	-1	0.6	-11	11	5	-3.2	1
- Cc1ccc(N(C)C(=O)CCNC(=O)Cn2cnc3ccccc3c2=O)cc1C
→ -3	-1.4	-4	4	0.1	8	6	3	1.3	-2

New compounds follow
SMILES | ALR inh | LANA-H2B inh | B2AR ag | Calb FLC | A1 inh | T cruzi inh | Ecoli rRNA inh | Ecoli rRNA inh OD600 | Ecoli rRNA inh RFP | Beta cell apopt
COc1ccc(C2/C=C\CN(C(=O)OCc3ccccc3)CC(=O)N2Cc2ccc(F)cc2)cc1 (configuration not stated) | x | 0.0 | 0 | 2 | 0.5 | 6 | -21 | -29 | -9.2 | -6
COc1ccc(-c2c(NC(C)=O)n(C)c3ccccc3c2=O)cc1 | 3 | 0.3 | -3 | -14 | -1.3 | 11 | x | x | x | 2
CCCCOP(=O)(OCCCC)C(O)c1ccc(N(C)C)cc1 (configuration not stated) | x | 2.7 | -2 | -20 | -0.3 | 5 | 7 | -2 | 4.5 | -4
CC(C)CC(=O)NC(=S)Nc1ccc(N2CCCC2)c(Cl)c1 | -4 | -2.2 | -7 | -15 | 0.9 | -4 | -4 | 7 | 13 | 2
COc1ccccc1N1CCN(C(=O)c2ccc(Cl)c(S(=O)(=O)N3CCOCC3)c2)CC1 | 11 | 3.4 | 4 | 1 | -0.8 | 10 | 3 | 3 | -0.7 | -7
COc1ccc(S(=O)(=O)n2cnc3cc(C)c(C)cc32)cc1 | 2 | 5.6 | -4 | -11 | 0.7 | 12 | x | x | x | 7
